Assay outcomes from PubChem BioAssay.
Rango complex inh – qHTS Assay for Inhibitors of Rango (Ran-regulated importin-beta cargo) - Importin beta complex formation; Rango CFP/YFP FRET sensor + importin beta, 45 min; Importin subunit beta-1 (Homo sapiens), Q14974; actives 0.031% (n = 340,000); AID 540263, 2011; Potency, µM (doses to about 92.2 µM), inactives show at the top dose inhibition of complex formation; active = rising FRET ratio curve, often small or poorly fitted; inconclusive = mostly compound fluorescence or quenching in the first reads; inactive = flat curves in all reads;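 further: potency means the concentration at half of the fitted maximal effect; 0% = DMSO wells and 100% = buffer wells lacking importin beta; nearly all actives have a fitted effect of over 15% in size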
Target sequence (Q14974 whole entry, looked up): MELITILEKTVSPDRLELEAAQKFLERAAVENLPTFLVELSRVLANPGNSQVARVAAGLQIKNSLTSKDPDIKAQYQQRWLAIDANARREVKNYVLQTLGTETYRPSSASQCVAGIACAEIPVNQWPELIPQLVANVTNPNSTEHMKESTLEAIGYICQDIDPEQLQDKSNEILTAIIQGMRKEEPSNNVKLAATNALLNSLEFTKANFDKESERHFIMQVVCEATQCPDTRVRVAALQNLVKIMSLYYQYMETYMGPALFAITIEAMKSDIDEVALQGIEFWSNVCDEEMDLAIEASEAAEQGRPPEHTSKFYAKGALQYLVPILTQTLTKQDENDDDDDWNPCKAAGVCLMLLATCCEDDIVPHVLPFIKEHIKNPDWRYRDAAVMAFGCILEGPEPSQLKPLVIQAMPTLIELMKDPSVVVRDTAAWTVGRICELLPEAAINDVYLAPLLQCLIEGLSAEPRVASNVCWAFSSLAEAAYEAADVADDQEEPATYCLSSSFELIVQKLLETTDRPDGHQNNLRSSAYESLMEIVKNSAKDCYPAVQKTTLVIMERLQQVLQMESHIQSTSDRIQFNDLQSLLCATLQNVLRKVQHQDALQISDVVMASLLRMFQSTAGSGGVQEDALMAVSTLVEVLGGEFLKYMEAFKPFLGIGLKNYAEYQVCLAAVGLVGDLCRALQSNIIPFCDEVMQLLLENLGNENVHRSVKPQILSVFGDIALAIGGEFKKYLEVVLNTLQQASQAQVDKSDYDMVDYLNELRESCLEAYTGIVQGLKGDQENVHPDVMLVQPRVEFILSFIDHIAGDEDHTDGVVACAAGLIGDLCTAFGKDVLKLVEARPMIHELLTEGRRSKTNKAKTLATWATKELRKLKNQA
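FRET biosensor (snurportin 1 IBB flanked by EYFP and cerulean), 50 nM, with compound 5 min, then 0.125 microM importin beta in PBS, 1 mM DTT, 0.02% Tween-20, 0.1% BSA. CFP/YFP ratio read after 45 min at room temperature; pre-read flags interference.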
miR-21 FLuc – qHTS Assay for Modulators of miRNAs and/orActivators of miR-21; 340,000 tested, under 10 active; HeLa miR-21 FLuc reporter, luciferase, 48 h; Potency, µM (highest dose often 38.3 µM), for inactives: at the highest dose reporter change, positive = more light; active = well fitted rising curve with a large enough effect; inconclusive = small, poorly fitted or top-dose-only effect; inactive = no such curve, though single readings can be large or run the other way;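 further: % of control where 0% means no effect; miR-21 action dims this reporter so a rising signal means less miR-21 action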
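HeLa cells endogenously expressing miR-21, stably carrying CMV-driven firefly luciferase with a downstream miR-21 binding site, 2000 cells/well. Titrations up to approximately 40 uM, 48 hours; luciferase luminescence read.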
GLA inh pH 4.5 – qHTS Assay for Inhibitors of Human alpha-Galactosidase at pH 4.5. activity change, negative = inhibition, % at 105 µM. 230,000 tested, under 10 active. Alpha-galactosidase A (Homo sapiens), P06280. purified enzyme, 4-MU-alpha-Gal fluorescence, pH 4.5. AID 1467, 2008; inconclusive = small, poorly fitted or top-dose-only inhibition, or a rising curve; inactive = flat fitted curve, though single readings scatter; no compound was filed as active;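 further: 0% = full activity with enzyme and -100% = basal without enzyme; dose as in the result columns while the protocol names 77 µM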
Rango release inh – qHTS Assay for Inhibitors of RanGTP induced Rango (Ran-regulated importin-beta cargo) - Importin beta complex dissociation; AID 540253, 2011; Biochemical FRET Rango-importin beta, RanGTP-induced dissociation; actives 0.071% (n = 340,000); Snurportin-1 (Homo sapiens) + GTP-binding nuclear protein Ran (Homo sapiens) + Importin …; Potency, µM (doses to about 46.1 µM), inactives show top-dose activity change, negative = inhibition; active means falling FRET ratio curve, often poorly fitted, with flat reads before Ran was added; inconclusive means other falling curves, or compound fluorescence or quenching; inactive means flat or rising ratio curve;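 further: potency means the concentration at half of the fitted maximal effect; % of control where 0% means no effect; nearly all actives have a fitted effect of over 45% in size; -100% = wells without RanGTP and RCC1; the record marks most hits as doubtful in a second field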
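Two FRET readings bracket the reaction: one 5 min after compound meets Rango–importin beta, another 45 min after RanGTP-RCC1 (0.6 uM Ran, 0.2 uM RCC1, 2 mM GTP) is added. Only the second defines inhibition.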
* hit, by the source's call; ? = inconclusive; . = no result given. This is a subset (hit frequency here may not be typical).

SMILES	Rango complex inh	miR-21 FLuc	GLA inh pH 4.5	Rango release inh
CC1=C(C(=O)N(C)C)C(c2ccc(N3CCOCC3)cc2)NC(=O)N1 (stereo not given)	-0.1%	0%	-3	2%
Cc1cccc(-c2nnc(SCC(=O)NCc3ccc4c(c3)OCO4)n2C)c1	0.0%	-6%	6	0%
CCCCc1nc2ccccc2c(NC(=O)CNC(C)(C)C)c1CCC	-0.4%	1%	2	4%
CC(C)C[C@H](NC(=O)c1nc[nH]c1C(=O)NCC(=O)OCc1ccccc1)C(=O)OC(C)(C)C	10%	3%	.	-2%
CCOc1cccc2cc(C(=O)NCc3ccc(OC)cc3)c(=N)oc12	0.6%	0%	.	-2%
O=C(N/C(=C/c1cccs1)c1nc2ccccc2[nH]1)c1ccccc1	-1.1%	-9%	-22	12%
C=CCn1c(C)c(C(C)=O)c(N2CCN(c3ccccc3)CC2)nc1=S	2.4%	-6%	9	-24%
Cc1cccc(Nc2nnc(SC/C(O)=C(\C#N)c3nc4ccccc4[nH]3)s2)c1	?	-21%	8	?
CCc1ccc(NC(=O)CCNS(=O)(=O)c2cccc3nonc23)cc1	1.6%	-5%	-10	-3%
CCOc1ccc(CN2CCN(Cc3c(C)nn(CC)c3C)CC2CCO)cc1 (stereo not given)	?	1%	0	0%
CCC(C(=O)OCC(=O)Nc1ccc(OC)cc1OC)c1ccccc1 (stereo not given)	-0.1%	-5%	6	0%
C/C(=N\NC(=O)c1ccccc1C)c1cccc([N+](=O)[O-])c1	5.0%	-29%	6	-8%
CCOC(=O)C1CCCN(C2CC(=O)N(c3ccc(N4C(=O)CC(N5CCCC(C(=O)OCC)C5)C4=O)cc3)C2=O)C1 (stereo not given)	4.1%	-2%	18	1%
Cc1ccc2nc(NC(=O)CSc3nc4c(c(=O)n3C)SC(C)C4)sc2c1 (stereo not given)	-3.1%	-14%	-24	1%
CCN1CCN(S(=O)(=O)c2ccc(Cl)c(C(=O)N(C)Cc3cccc(OC)c3)c2)CC1	0.2%	.	.	-20%
CCOC(=O)c1cc2c(ccn2C)n1CC(=O)N1CCCC(C)C1 (stereo not given)	-0.7%	0%	1	9%
CCCCN(CC)C(=O)c1cccc(Cl)c1	0.8%	-2%	-14	8%
O=C(CSc1nnc(NC(=O)C2CC(=O)N(c3ccccc3)C2)s1)NCC1CCCO1 (stereo not given)	1.7%	-4%	.	15%
Cc1cc(C)c(NC(=O)C2CCCO2)c(C)c1 (stereo not given)	0.6%	.	.	2%
O=S(=O)(CCc1nc2ccccc2[nH]1)c1ccc(Br)cc1	-0.4%	7%	11	13%
CCOc1cccc(NC(=O)C2CC(=O)N(c3ccc(F)cc3)C2)c1 (stereo not given)	0.7%	-19%	6	2%
CCOc1ccccc1NC(=O)CN(c1ccc(Cl)cc1)S(C)(=O)=O	-0.1%	-4%	.	-1%
COc1ccc(-c2csc(/C(C#N)=C/Nc3ccc4c(c3)OCCO4)n2)cc1	0.2%	-11%	-6	23%
C=CCn1c(SCCN)nnc1-c1cccc(S(=O)(=O)N2CCOCC2)c1	3.6%	.	.	12%
COc1ccc2nc(C)cc(N/N=C/c3cccc(OC)c3O)c2c1	?	25%	.	?

Six compounds drawn at random from those above:
SMILES	Rango complex inh	miR-21 FLuc	GLA inh pH 4.5	Rango release inh
O=S(=O)(CCc1nc2ccccc2[nH]1)c1ccc(Br)cc1	-0.4%	7%	11	13%
COc1ccc2nc(C)cc(N/N=C/c3cccc(OC)c3O)c2c1	?	25%	.	?
Cc1cccc(-c2nnc(SCC(=O)NCc3ccc4c(c3)OCO4)n2C)c1	0.0%	-6%	6	0%
CCOC(=O)C1CCCN(C2CC(=O)N(c3ccc(N4C(=O)CC(N5CCCC(C(=O)OCC)C5)C4=O)cc3)C2=O)C1 (stereo not given)	4.1%	-2%	18	1%
Cc1cc(C)c(NC(=O)C2CCCO2)c(C)c1 (stereo not given)	0.6%	.	.	2%
C/C(=N\NC(=O)c1ccccc1C)c1cccc([N+](=O)[O-])c1	5.0%	-29%	6	-8%

Next results follow:
SMILES	Rango complex inh	miR-21 FLuc	GLA inh pH 4.5	Rango release inh
Cc1c(C(C)(C)O)[nH]c2cc(C(F)(F)F)ccc12	0.9%	5%	.	-6%
O=C(CSc1nc2ncccc2[nH]1)c1cccc([N+](=O)[O-])c1	1.9%	-4%	-13	9%
O=C(CC1CCOCC1)Nc1ccc(Cl)c(Cl)c1	1.5%	-30%	2	-7%
c1ccc(NC2=Nc3ccccc3CS2)cc1	2.2%	-48%	9	10%
COc1ccc(S(=O)(=O)c2ccc(OCC3CO3)cc2)cc1 (stereo not given)	-1.2%	-8%	-12	7%
Cc1c(O)c(=O)c2ccccc2n1C	-5.0%	-7%	?	-14%
O=C(NC(NNc1ccc([N+](=O)[O-])cc1)(C(F)(F)F)C(F)(F)F)c1ccccc1Cl	2.4%	16%	-20	-9%
Cc1ccc(-c2c(C(=O)N3CCOCC3)oc(=O)c3ccccc23)cc1	?	-26%	-2	16%
COCCNS(=O)(=O)c1ccc(SC)cc1	2.6%	1%	-9	0%
CCOc1ccc(N(CC(=O)NN=C2CCN(C)CC2)S(=O)(=O)c2ccc(Br)cc2)cc1	1.3%	2%	.	11%
CNC(=S)n1cnc(N)n1	?	6%	10	?
CC(=O)N(c1ccccc1)c1nc(C)cc(C)c1C#N	0.4%	-3%	-8	11%
COc1ccc(/C=C/c2cc(O)cc(OC3OC(CO)C(O)C(O)C3O)c2)cc1 (stereo not given)	2.0%	.	.	-13%
CCOc1ncccc1C(=O)OCCCC(=O)c1ccc(Br)cc1	-3.1%	.	.	14%
COC(=O)c1c(NC(=O)c2ccccc2F)sc(C(=O)N2CCOCC2)c1C	5.9%	-8%	.	-2%
CC1(C)Cc2c(sc3[nH]c(=S)n(Cc4ccccc4)c(=O)c23)CO1	-0.6%	-7%	-1	0%
NC(=O)c1ccsc1NC(=O)COC(=O)c1cc(Cl)ccc1O	0.7%	.	.	-14%
CCOc1ccc(NCc2nnc(SCC(=O)Nc3cc(C)on3)n2-c2ccccc2OC)cc1	-1.9%	19%	3	-2%
Cn1c(NN)nc2ccccc2c1=O	-0.1%	-25%	1	-10%
S=C(Nc1ccccc1)N1CCOCC1	0.6%	1%	-3	-14%
COc1ccc(C(=O)Nc2cc(C)nn2-c2ccc(F)cc2)cc1	3.2%	5%	.	8%
COc1cccc(C(=O)NC2CCCc3ccccc32)c1 (stereo not given)	1.2%	-12%	.	-1%
CCCn1c(C(C)Nc2nc(-c3ccc(C)cc3)cs2)nc2cc(Cl)c(Cl)cc21 (stereo not given)	-2.8%	0%	.	14%
O=C1Nc2ccccc2OC1CC(=O)N1CCOCC1 (stereo not given)	-3.6%	-8%	2	-4%
O=C(NC(=S)NCc1ccc(-c2nc3ccccc3s2)cc1)c1ccco1	0.4%	-47%	-1	0%

(continued)
SMILES	Rango complex inh	miR-21 FLuc	GLA inh pH 4.5	Rango release inh
CCN(CC)CCn1c(SCC(=O)NCc2ccccc2)nc2c(sc3ccccc32)c1=O	-2.3%	1%	9	-3%
COc1cc(CC2COC(c3ccc(O)c(OC)c3)C2COC(C)=O)ccc1O (stereo not given)	-0.6%	-5%	-10	6%
COC(=O)c1sc(N2C(=O)C(O)=C(C(=O)c3ccc(C)o3)C2c2ccco2)nc1C (stereo not given)	?	-5%	.	?
CC(C)n1c(-c2ccncc2)n[nH]c1=S	-0.1%	-2%	11	12%
CCOC(=O)c1c(C)n(-c2ccc(C)cc2)c2ccc(O)c(CN(C)C)c12	-1.5%	?	-3	-17%
O=C(c1ccc(F)cc1)C1CCN(C(=O)c2ccc(F)cc2)CC1	0.0%	5%	.	-1%
CCOc1cc(C(=O)NCCc2ccc(S(N)(=O)=O)cc2)cc(OCC)c1OCC	0.9%	-1%	5	12%
COc1ccc2c(C)cc(SCC(=O)Nc3cc(C(N)=O)cc(C(N)=O)c3)nc2c1	?	0%	-5	?
Cc1cc(CNC(=O)c2cccnc2Cl)c2ccccc2n1	1.4%	8%	5	-18%
CC[C@H]1C/C=C\Cc2ccccc2[C@H](C(=O)C[C@@H](O)CC(C)=O)OC1=O	-2.1%	.	.	19%
CCn1c(NCc2cccs2)nc2ccccc21	4.0%	-12%	2	-2%
CCn1c(/C=C/c2ccccc2)nc2ccccc2c1=O	0.9%	-1%	.	2%
CCOCCCN(C)C1CCN(S(=O)(=O)c2csc(C(N)=O)c2)CC1	9.7%	0%	.	12%
O=C(NC1CCCC1)C(c1cccnc1)N(C(=O)c1csnn1)c1ccc(F)cc1 (stereo not given)	-1.4%	-1%	.	28%
Cc1ccc(-c2nc(CN3CCN(c4cnccn4)CC3)c(C)o2)o1	-1.0%	-4%	7	6%
COc1ccc(C(=O)c2cc3cccc(OC)c3o2)cc1	2.3%	-67%	-1	2%
CS(=O)(=O)Nc1ccc(C(=O)Nc2ccc3c(c2)OCO3)cc1	6.3%	-38%	-12	1%
CCOC(=O)C1CCN(C(=O)CN2C(=O)NC(C)(c3ccc4cc(OC)ccc4c3)C2=O)CC1 (stereo not given)	-0.1%	.	.	-5%
C/C(=N\NC(=O)c1cccc(F)c1)c1ccc(Br)s1	-16%	1%	-1	-14%
O=C(CN1CCN(c2ncc(C(F)(F)F)cc2Cl)CC1)NCCNc1ncc(C(F)(F)F)cc1Cl	-1.2%	-1%	-15	3%
COc1ccc(C(=O)NCCc2c[nH]c3ccccc23)cc1OC	2.2%	-17%	.	19%
Cc1noc(C)c1COC(=O)c1cc2c3ccccc3n(C)c2s1	-1.6%	-17%	-6	-8%
Cc1cc(C)n(C(=O)C(C(=O)c2ccccc2)C(C)C)n1 (stereo not given)	-1.5%	1%	-4	3%
Cc1cnc(-c2nnc(N(C)C(=O)C3CCCO3)s2)cn1 (stereo not given)	0.4%	-21%	4	-19%
C/C(=N\NC(=O)CN1CCCCC1)c1cccc([N+](=O)[O-])c1	-0.5%	.	.	1%

More entries.
SMILES	Rango complex inh	miR-21 FLuc	GLA inh pH 4.5	Rango release inh
CN1C(=O)CC(Sc2ccccc2C(=O)O)C1=O (stereo not given)	0.9%	-1%	0	0%
CCOC(=O)CNC(=O)c1cc(-c2ccc3c(c2)OCCO3)oc1C	-2.2%	-48%	-5	-21%
COc1ccc(-c2noc(CCC(=O)Nc3nc4ccccc4s3)n2)cc1	0.6%	1%	-7	-5%
COc1cc(-c2noc(-c3cccs3)n2)cc(OC)c1OC	3.9%	-13%	-2	9%
CCSc1ncc(Cl)c(C(=O)Nc2ccccc2Cl)n1	0.1%	-7%	.	-9%
Cc1ccc(CNC(=O)C2CCN(S(=O)(=O)N3CCOCC3)CC2)cc1	3.0%	-5%	4	-11%
CCCc1cc(=O)oc2cc(C)cc(OCC(=O)NC(Cc3ccc(Cl)cc3)C(=O)O)c12 (stereo not given)	0.8%	-2%	.	2%
CN(C)CCCNc1ncnc2scc(-c3ccccc3)c12	-1.8%	5%	2	-3%
Nc1nnc(CSCc2ccc(Cl)cc2Cl)s1	7.0%	-23%	-17	6%
Cc1cc(C)nc(-n2nc(C)cc2NC(=O)CN2CCC(C)CC2)n1	-2.7%	-1%	-19	8%
CCOC(=O)c1ccc(N2C(=O)C=C(N3CCOCC3)C2=O)cc1	?	1%	.	11%
O=C(NNC(=O)c1ccccc1F)c1ccc2nc[nH]c2c1	7.4%	-27%	.	-4%
O=C(/C=C/Nc1ccccc1Br)c1ccccn1	?	?	3	?
O=C(COC(=O)c1ccc2[nH]c3c(c2c1)CCCC3)NC1CCS(=O)(=O)C1 (stereo not given)	?	-7%	5	?
COc1ccccc1N1CC(C(=O)Nc2cc(C(F)(F)F)ccc2N2CCCC2)CC1=O (stereo not given)	-3.2%	.	.	24%
CCOCCCNC(=S)N1CCN(C(=O)C(=O)Nc2ccc(C(=O)OC)cc2)CC1	0.1%	1%	7	-10%
Nc1cccc2c1C(=O)N(Cc1nnc(-c3ccccc3Br)o1)C2=O	?	-31%	.	?
O=c1cc(-c2ccco2)nc(-c2cccs2)o1	-0.1%	2%	1	-2%
